Vif A3G: inhibitors of Vif binding to APOBEC3G peptide, primary screen, biochemical, TR-FRET, GST-Vif 1-94, biotin-A3G peptide, dose response retest (AID 1117319); TR-FRET GST-Vif / biotin-A3G peptide binding; higher % means a stronger effect; test concentration not given here; strong numbers were not always called active; inhibition, %, or IC50 in µM where a hit was titrated; 260,000 tested, 0.57% active;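 active means above the screen mean plus three standard deviations and confirmed in dose response; inconclusive means results disagree or hit not tested in dose response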;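 further: Vif residues 1-94 fused to GST binding biotinylated APOBEC3G peptide 110-148; 0% = full assay without inhibitor and 100% = GST in place of GST-Vif; retest series ran down from 100 µM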
HNF4A DNA FP: change in binding of human HNF4A to DNA, primary screen, biochemical, fluorescence polarization, FITC-DNA. Hepatocyte nuclear factor 4-alpha (Homo sapiens), P41235. 1 h. activity change, % at 10 µM. 360,000 tested, 0.3% active. AID 1224865, 2016; in the data active means activity change above about 30%, passing the limit was not always enough;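 further: controls were the assay level and a saturating level of protein; the project sought stronger binding though the title names inhibitors; some compounds called inactive have numbers as strong as hits; positive values seem to mean higher polarization but the record does not say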
Target sequence (P41235 whole entry, looked up): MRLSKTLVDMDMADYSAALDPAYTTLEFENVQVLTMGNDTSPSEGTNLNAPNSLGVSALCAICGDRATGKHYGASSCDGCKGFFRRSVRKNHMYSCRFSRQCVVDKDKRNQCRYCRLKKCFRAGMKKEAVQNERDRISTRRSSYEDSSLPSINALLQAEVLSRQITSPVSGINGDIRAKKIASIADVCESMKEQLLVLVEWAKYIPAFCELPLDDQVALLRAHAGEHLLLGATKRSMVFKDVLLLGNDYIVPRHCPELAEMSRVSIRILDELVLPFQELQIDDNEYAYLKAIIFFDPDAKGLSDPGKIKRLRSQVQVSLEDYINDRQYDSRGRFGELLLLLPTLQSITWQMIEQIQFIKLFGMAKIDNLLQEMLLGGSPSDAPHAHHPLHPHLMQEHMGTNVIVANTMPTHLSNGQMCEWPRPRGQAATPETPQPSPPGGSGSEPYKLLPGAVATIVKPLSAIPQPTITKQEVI
Ecoli rRNA inh: reduced GFP signal of wild-type E. coli, primary screen, bacterial rRNA inhibitor project, GFP/RFP fluorescence, OD600, single point. E. coli WT GFP vs humanized-ribosome RFP mutants, 24 h; hits give low values; DMSO median 0, no signal -100. 350,000 tested, 1.6% active. GFP signal change (wild-type ribosome), % (no concentration beside the values). AID 720706, 2013;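 active means significant combined selectivity score with lowered wild-type GFP, culture density cut under 30%, mutant RFP and density less affected; inactive means any of these conditions unmet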; further: one replicate is shown; some compounds called inactive have numbers as strong as hits
AF4-AF9 inh: inhibitors of AF4 peptide binding to AF9, primary screen, biochemical, AlphaScreen, biotin-AF4 peptide, FLAG-AF9, single point. inhibition, % at 10 µM. 350,000 tested, 0.47% active. AID 651704, 2012;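 active means every replicate reaching a set inhibition limit, whatever the replicate mean, cut at about 25% in these data; inconclusive means mean inhibition reaches that limit but some replicates miss it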;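 further: 0% = plate neutral control median and 100% = total signal loss; the record names both 10 and 1 µM as test concentration; the first replicate is given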
FGF22 binding: binders of human FGF22 protein, primary screen, FGF22 synaptogenesis inhibitor project, biophysical, thermal shift, single point; Fibroblast growth factor 22 (Homo sapiens), Q9HCT0; recombinant FGF22 thermal shift, SYPRO orange fluorescence; percent of sucrose octasulfate shift, DMSO zero; calls only at 9.99 µM; 340,000 tested, 1.5% active; AID 651658, 2012;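 active means melting point raised past a set limit in the mean and every replicate; inconclusive means no clear call; three in four hits are not shown here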
Target sequence (Q9HCT0 whole entry, looked up): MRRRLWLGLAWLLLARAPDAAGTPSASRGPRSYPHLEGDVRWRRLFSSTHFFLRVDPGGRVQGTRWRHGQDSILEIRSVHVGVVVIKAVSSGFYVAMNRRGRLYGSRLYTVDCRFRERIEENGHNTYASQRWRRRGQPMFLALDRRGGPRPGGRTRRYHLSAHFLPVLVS
E coli growth: E. coli growth inhibition, primary screen, OD600. AID 1053175, 2014. 330,000 tested, 0.21% active. Escherichia coli growth, 23 h; hits give low values. OD600 absorbance (no concentration beside the values);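 active means OD600 absorbance below the run mean of sample wells minus 3.6 SD, in any replicate, cut at about 0.56 in these data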;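 further: stock transfer was 300 nL into about 60 µL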
ALR H2O2 inh: inhibitors of human ALR sulfhydryl oxidase, primary screen, biochemical, H2O2 detection, HRP-luminol luminescence, single point. FAD-linked sulfhydryl oxidase ALR (Homo sapiens), P55789. purified ALR, DTT oxidation. inhibition, % (test concentration not listed). 290,000 tested, 3.8% active. AID 485317, 2010;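 active means mean and each replicate at 75% or more; inconclusive means only one of the two met; inactive means neither met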;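 further: stock transfer was 7.5 nL into about 7.5 µL; 0% = neutral wells and 100% = wells with inactivated enzyme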
Target sequence (P55789 whole entry, looked up): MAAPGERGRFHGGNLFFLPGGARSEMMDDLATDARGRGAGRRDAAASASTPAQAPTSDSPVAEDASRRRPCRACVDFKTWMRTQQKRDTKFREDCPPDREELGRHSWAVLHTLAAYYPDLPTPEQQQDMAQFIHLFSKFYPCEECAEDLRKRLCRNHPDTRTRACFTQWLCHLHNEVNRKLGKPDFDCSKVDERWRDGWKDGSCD
Ecoli rRNA inh OD600: further read-out of Ecoli rRNA inh, marked with its call; OD600 change, %; measured here: OD600 growth;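 optical density of the mix in the first replicate; 0 = DMSO median and -100 = no signal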
Ecoli rRNA inh RFP: further read-out of Ecoli rRNA inh, marked with its call; RFP signal change, %; measured here: RFP humanized mutant strains;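 first replicate; 0 = DMSO median and -100 = no signal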
Active calls of the source: *; i = inactive; ? = inconclusive; . = no result given; & = joins results of further samples. The list is partial, so the mix of outcomes need not match the whole.

Each structure is followed by: Vif A3G, HNF4A DNA FP, Ecoli rRNA inh, Ecoli rRNA inh OD600, Ecoli rRNA inh RFP, AF4-AF9 inh, FGF22 binding, E coli growth, ALR H2O2 inh
[1] CC(Nc1c[nH]c(=O)[nH]c1=O)c1ccccc1 (centres undefined)
  ., -1.9, 19.9, 8.3, 6.3, -1.1, i, 0.704, 0.0
[2] CCCCN(C(=O)CCCc1nc2ccccc2c(=O)[nH]1)c1c(N)n(CC(C)C)c(=O)[nH]c1=O
  -7.2%, -1.4, ., ., ., -2.4, i, 0.653, -2.3
[3] C[C@H](NC(=O)c1[nH]cnc1C(=O)N[C@@H](C)CO)c1ccccc1
  ., 4.7, 3.0, 3.0, -4.0, -1.9, i, ., .
[4] CC(C)(C)NS(=O)(=O)c1ccc(CCC(=O)N2CCOCC2)cc1
  8.7%, 3.3, ., ., ., ., ., 0.726, -13.4
[5] COCC(=O)n1nc(NCc2ccc(OC)cc2)nc1NCc1ccc(OC)cc1
  0.9%&2.9%, -1.0, ., ., ., ., ., 0.704, -7.7
[6] Cc1ccc(C)c2c1N(Cc1ccccc1)C(=O)C21OCCO1
  ., -0.5, 12.1, 2.3, 0.4, -1.0, i, 0.677, -2.0
[7] COc1cccc(C2CC(c3cccc(Br)c3)n3ncnc3N2)c1 (centres undefined)
  -3.8%, -4.1, -34.6, -44.4, -8.8, 1.6, i, 0.748, -6.6
[8] CCOC(=O)c1nnn(-c2nonc2NC(C)=O)c1C
  4.7%, -0.8, ., ., ., ., ., 0.7, -11.4
[9] Cc1c(Br)cc(C(=O)NCCCN2CCOCC2)c(C)c1C
  14.8%, 0.3, ., ., ., ., ., 0.716, -17.6
[10] Cc1ccc(CNS(=O)(=O)NCc2cccs2)cc1
  -5.2%, -6.0, 1.2, 15.3, 1.2, -4.9, i, 0.698, -14.8
[11] CC1(C)CC(=O)C(N=Nc2ccc(C(F)(F)F)cc2[N+](=O)[O-])=C(O)C1
  0.6%, 1.4, 0.7, 14.6, 3.4, 5.5, i, 0.665, -23.4
[12] COCCn1c(=O)c2c(nc3n2CCCN3CCc2ccccc2)n(C)c1=O
  11.9%, -1.3, -1.4, -2.4, -3.2, 3.4, i, 0.657, 4.1
[13] Cc1cc(=O)n2nc(N3CCCC(C(=O)NCc4ccc5c(c4)OCO5)C3)sc2n1 (centres undefined)
  -1.1%, 0.6, ., ., ., ., ., 0.74, -3.1
[14] O=S(=O)(NCCCc1ccccc1)c1cccc2nsnc12
  28.0%, 2.6, -46.5, -63.8, -18.4, 2.6, i, 0.673, -9.3
[15] COc1ccc(C(=O)Nc2ccc(N3CCN(C)CC3)cc2)cc1
  ., 5.3, 19.3, 16.4, 0.8, 2.6, i, 0.686, -0.4
[16] CCOC(=O)C1CCCN(Cc2nc(N)nc(Nc3ccccc3)n2)C1 (centres undefined)
  3.4%, 3.0, ., ., ., ., ., 0.707, 0.4
[17] O=C(CSc1ncccc1-c1nc2ccccc2[nH]1)NCc1ccco1
  22.7%, 0.8, 13.8, 7.2, 0.9, 8.5, i, 0.742, -5.4
[18] CCN(CC)CCNC(=O)C1(O)c2cc(Br)ccc2NC(=O)N1c1ccc(Cl)cc1 (centres undefined)
  -7.3%, 1.3, -6.1, -1.9, -1.9, 2.3, i, 0.671, -16.9
[19] Cc1cccc(NC(=O)CCS(=O)(=O)c2cccc3nsnc23)c1C
  -7.4%, -3.5, ., ., ., ., ., 0.726, -4.1
[20] Cc1cccc(-c2nc3c(c(SCC(=O)N4CCCC4)n2)COC(C)(C)C3)c1
  2.9%, -0.4, 18.2, 5.2, 2.1, -1.3, i, 0.676, 0.4
[21] C=CCOc1cccc(C2C(C(=O)c3ccco3)=C(O)C(=O)N2CCN2CCOCC2)c1 (centres undefined)
  12.7%, 3.7, 11.6, 8.5, 4.1, ., ., 0.746, 12.7
[22] C[C@@H]1CN([C@@H](C)CO)C(=O)c2cc(NC(=O)Nc3ccc4c(c3)OCO4)ccc2O[C@H]1CN(C)Cc1ccc(C(=O)O)cc1
  ., ., -0.2, 0.6, -1.6, -1.6, i, ., .
[23] COc1ccc(NC(=O)C(OC)c2ccccc2)cc1Cl (centres undefined)
  3.8%, 2.2, ., ., ., ., ., 0.696, 0.1
[24] CCCC(=O)Nc1ccc2c(c1)OC[C@@H](C)N(CCC(F)(F)F)C[C@@H](C)[C@@H](OC)CN(C)C2=O
  ., ., -0.3, -6.6, -2.5, 0.7, i, ., .
[25] C=CCC(=O)N(CC)CC1CCCN(CCc2cccc(F)c2)C1 (centres undefined)
  -1.3%, 0.1, 20.9, 16.8, -1.2, 3.0, i, 0.689, 2.0
[26] Cc1ccc(C(=O)Oc2csc(=S)n2C(=O)c2ccc(C)cc2)cc1
  2.3%, -1.2, ., ., ., ., ., 0.677, 8.0
[27] COc1cc(NC(=O)c2cc(OC)c(OC)c(OC)c2)c2ncccc2c1
  ., 2.0, -9.6, 0.8, 0.6, 5.2, i, ., .
[28] CC(C(=O)Nc1cccnc1)N1C(=O)C2C3C=CC(C3)C2C1=O (centres undefined)
  ?, 1.9, ., ., ., ., ., 0.727, -5.5
[29] CCOC(=O)C1CCCN(C(=O)Cn2nc(Cc3cccnc3)c3ccccc3c2=O)C1 (centres undefined)
  6.9%, 1.3, -10.9, -23.3, -5.5, -7.4, i, 0.778, -23.1
[30] COC(=O)[C@]12CCCCC=C1N(Cc1ccccc1)C(=O)[C@H](CC(=O)N1CCCC1)C2
  ., -1.4, -1.6, -5.1, 3.0, 0.0, i, ., .
[31] Cc1nc(C)c(-c2ccc(SCc3ccc(Cl)cc3)nn2)s1
  -10.1%, 2.2, -0.9, 2.1, 0.9, -4.2, i, 0.709, -11.8
[32] O=C(CNC(=O)c1ccccc1F)OCc1nc2ccc(Cl)cc2n1CCO
  -4.4%, -0.8, 9.7, 7.8, 2.8, -28.3, i, 0.701, .
[33] C(=C\c1ccccc1)/CSc1nnc(-c2cnccn2)n1Cc1ccco1
  19.2%, -1.8, ., ., ., ., ., 0.743, 11.1
[34] CCN(C(=O)COC(=O)/C=C/c1ccc(S(=O)(=O)N2CCc3ccccc32)cc1)C1CCS(=O)(=O)C1 (centres undefined)
  8.9%, -0.7, -2.7, -6.9, 5.6, 6.3, i, 0.653, -6.8
[35] O=C(C[C@@H]1C=C[C@@H](NC(=O)Nc2ccc3c(c2)OCO3)[C@H](CO)O1)NCc1ccc(Cl)cc1
  ., ., -4.9, 3.1, -1.0, 0.2, i, ., .
[36] O=C(OCc1nc2ccsc2c(=O)[nH]1)c1ccc(Cl)s1
  11.9%, -8.0, 0.7, 1.0, -1.0, 2.5, i, 0.63, -5.5
[37] CS(=O)(=O)NNC(=O)Cn1nnc(-c2ccc(OCc3ccccc3Cl)cc2)n1
  ., 2.4, -11.9, -7.3, -5.5, -0.3, i, 0.646, -2.8
[38] COCC#Cc1ccc2c(c1)O[C@@H](CN(C)C)[C@@H](C)CN([C@H](C)CO)S2(=O)=O
  ., ., -3.7, 5.1, -0.5, 0.8, i, ., .
[39] O=C(CS(=O)CC(=O)Nc1cccc2c1CCCC2)Nc1ccc(F)cc1 (centres undefined)
  -5.2%, 1.8, ., ., ., ., ., 0.701, .
[40] Cn1c2ccccc2c(=O)c2c(=O)n(-c3ccccc3)c(C3CCCCC3)nc21
  -9.0%, 0.7, ., ., ., ., ., 0.702, 1.4
[41] COc1ccc(S(=O)(=O)Nc2cccc3c2O[C@@H](CN(C)C)[C@@H](C)CN([C@@H](C)CO)C3=O)cc1
  ., ., 0.9, 4.7, -0.5, -2.4, i, ., .
[42] CC1=CC(C)(C)N(S(=O)(=O)c2ccc(F)cc2)c2ccc(C)cc21
  22.0%, 1.1, ., ., ., ., ., 0.708, -4.0
[43] O=C(CNCc1ccccc1Cl)Nc1ccccc1N1CCCCC1
  -2.0%, -0.2, -36.6, -52.6, -11.2, -1.6, i, 0.71, 4.2
[44] CCOC(=O)CN(C(=O)CSc1nnc(-c2ccc(OC)c(OC)c2)o1)c1ccc(F)cc1
  -1.9%&-9.7%, -0.5, ., ., ., ., ., 0.696, -2.1
[45] N#C[C@H]1[C@H](c2ccc(-c3ccccc3F)cc2)[C@H](CO)N1C(=O)c1ccccn1
  ., ., -0.1, -11.2, -2.4, -2.6, i, ., .
[46] O=[N+]([O-])c1ccc2c(OCc3nnc(-c4ccccc4Br)o3)ncnc2c1
  -15.1%, 4.6, 4.9, 1.6, -0.5, -0.1, i, 0.696, .
[47] C=CCOc1ccc(Oc2cc(C)nc(SC)n2)nn1
  ., -1.5, ., ., ., ., ., 0.74, -14.2
[48] N#Cc1c(Cl)nsc1NC(=O)c1ccccc1
  ., -0.6, -44.5, -77.2, -13.3, -6.2, i, 0.559, 18.0
[49] CCCCCn1nnnc1-c1nc2cc(C)c(C)cc2[nH]c1=O
  ., 3.2, 1.8, 1.8, 0.4, -0.2, i, ., .
[50] CO[C@@H]1CN(C)C(=O)c2cc(NC(=O)c3nc4ccccc4s3)ccc2OC[C@@H](C)N(Cc2cncnc2)C[C@H]1C
  ., ., -0.9, 2.5, -0.7, -0.9, i, ., .
[51] CC(/C=N/NC(=O)Cn1nccc1C)=C\c1ccc(C(C)C)cc1
  1.7%, -1.6, ., ., ., ., ., ., -0.6
[52] NC(=O)COc1ccc(/C=N/NS(=O)(=O)c2ccccc2)cc1
  -9.2%, 2.4, 14.2, 9.6, -0.6, -0.1, i, ., 6.5
[53] COc1ccc(CCNC(=O)C23CCC(C)(C(=O)C2Br)C3(C)C)cc1OC (centres undefined)
  27.7%, 3.5, 6.2, -7.7, 1.1, 0.4, i, 0.625, 3.4
[54] N#C[C@@H]1[C@H](c2ccc(-c3ccccc3F)cc2)[C@H](CO)N1C(=O)c1ccccn1
  ., ., -2.2, -28.9, -2.4, 1.0, i, ., .

4 entries from above, sorted by SMILES length, lowest first:
Each structure is followed by: Vif A3G, HNF4A DNA FP, Ecoli rRNA inh, Ecoli rRNA inh OD600, Ecoli rRNA inh RFP, AF4-AF9 inh, FGF22 binding, E coli growth, ALR H2O2 inh
[48] N#Cc1c(Cl)nsc1NC(=O)c1ccccc1
  ., -0.6, -44.5, -77.2, -13.3, -6.2, i, 0.559, 18.0
[32] O=C(CNC(=O)c1ccccc1F)OCc1nc2ccc(Cl)cc2n1CCO
  -4.4%, -0.8, 9.7, 7.8, 2.8, -28.3, i, 0.701, .
[26] Cc1ccc(C(=O)Oc2csc(=S)n2C(=O)c2ccc(C)cc2)cc1
  2.3%, -1.2, ., ., ., ., ., 0.677, 8.0
[44] CCOC(=O)CN(C(=O)CSc1nnc(-c2ccc(OC)c(OC)c2)o1)c1ccc(F)cc1
  -1.9%&-9.7%, -0.5, ., ., ., ., ., 0.696, -2.1
